TRPML1 inh – inhibitors of human TRPML1 channel; Q9GZU1; 390,000 tested, 0.02% active; TRPML1-inducible cells, Ca2+ dye fluorescence, FDSS; stronger effect = lower value; inhibition of EC80 agonist-evoked calcium signal; activity change, negative = inhibition, % (test concentration not listed); in the data active means activity change below about -50%; inconclusive means about -30% to -50%; inactive means above about -30%;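 also: stimulus is agonist 54-4 at its EC80 concentration; % is scaled to controls: 0 for no effect and ±100 for the full control effect; compound concentration not given in the record; the text of the record puts the active cut at -80%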
Target sequence (Q9GZU1 whole entry, looked up): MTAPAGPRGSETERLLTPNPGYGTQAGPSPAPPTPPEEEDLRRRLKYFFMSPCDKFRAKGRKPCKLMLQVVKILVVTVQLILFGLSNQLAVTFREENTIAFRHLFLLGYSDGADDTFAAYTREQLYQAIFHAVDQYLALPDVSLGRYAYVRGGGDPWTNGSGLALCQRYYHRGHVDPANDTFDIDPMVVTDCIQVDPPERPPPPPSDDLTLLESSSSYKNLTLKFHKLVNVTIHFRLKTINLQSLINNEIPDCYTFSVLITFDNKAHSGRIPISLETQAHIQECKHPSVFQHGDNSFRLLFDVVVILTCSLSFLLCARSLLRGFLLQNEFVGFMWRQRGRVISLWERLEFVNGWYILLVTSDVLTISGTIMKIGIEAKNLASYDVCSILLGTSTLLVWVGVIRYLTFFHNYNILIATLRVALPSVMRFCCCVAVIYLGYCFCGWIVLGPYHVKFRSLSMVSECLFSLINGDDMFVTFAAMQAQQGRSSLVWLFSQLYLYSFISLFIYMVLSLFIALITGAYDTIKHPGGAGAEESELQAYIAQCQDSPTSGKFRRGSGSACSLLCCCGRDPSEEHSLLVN
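Calcium fluorescence in TRPML1-DL cells induced overnight with Tet: a 110 s read after compound pin addition, then a 110 s antagonist read after challenge with 54-4 at 4 uM final (EC80).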
ClpP mod – qHTS Assay for Activators of ClpP | Potency, µM (highest dose often 57.5 µM), without a hit: at the highest dose activity change, negative = active | 340,000 tested, 1.9% active | purified B. subtilis ClpP, FRET peptide cleavage, 20 min | ATP-dependent Clp protease proteolytic subunit (Bacillus subtilis (strain 168)), P80244; active = well fitted falling curve with a large enough effect; inconclusive = small, poorly fitted or top-dose-only effect; inactive = no such curve, though single readings can be large or run the other way; also: potency is read from the fitted curve at half-maximal effect; the source files actives as falling curves though it sought activators and does not explain the sign; nearly all actives have a fitted effect of over 65% in size; many hits overshoot -100%
Target sequence (P80244 whole entry, looked up): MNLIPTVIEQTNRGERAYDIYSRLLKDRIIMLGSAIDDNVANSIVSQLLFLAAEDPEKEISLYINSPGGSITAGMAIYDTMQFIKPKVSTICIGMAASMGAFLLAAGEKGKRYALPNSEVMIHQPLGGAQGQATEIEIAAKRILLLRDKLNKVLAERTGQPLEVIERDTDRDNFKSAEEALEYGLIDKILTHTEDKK
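ClpP 10 microg/mL final, pH 8 Tris/KCl buffer with BSA, glycerol, Tween-20; compound pinned in; FRET-FV substrate; RT 20 min; Ex320/Em430; ΔFRET vs ADEP 5.8 microM, DMSO, no enzyme.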
An asterisk follows results filed as active; ? = inconclusive.

SMILES | TRPML1 inh | ClpP mod
COc1ccc(-n2ncc(C(=O)N3CCN(Cc4ccccc4)CC3)c2C2CCN(C(=O)OC(C)(C)C)CC2)cc1 | 8 | 0.1%
Cc1ccc(-c2nnc3c4ccccc4c(-c4ccccc4)nn23)cc1 | 4 | -3.4%
COC(=O)c1c(NC(=O)COc2cc(C)c(Cl)c(C)c2)sc2c1CCCC2 | 11 | 0.2%
COc1ccc(NC(=O)c2ccc3c(c2)sc2nc(-c4ccc(OC)cc4)cn23)cc1 | -13 | ?
CNC(=O)c1cccc(-n2c(C)nc3cccnc32)c1C | 6 | -6.3%
Cc1ccc(N(C)C(=O)c2noc3c2CCCCC3)cc1C | 18 | 0.9%
CC(C)CCNc1ncnc2c1cnn2-c1cccc(Cl)c1 | 3 | -6.8%
COc1ccc(C)cc1NC(=O)c1noc2c1CSc1ccccc1-2 | 13 | -1.2%
CCN1CCN(c2cc(C)c3cc(NC(=O)/C=C/c4cccc(OC)c4OC)ccc3n2)CC1 | ? | 8.0%
CCOc1cc(C2c3c(oc4ccc(F)cc4c3=O)C(=O)N2Cc2ccco2)ccc1O (stereo not drawn) | -27 | -1.9%
CCn1c(=O)c2sccc2n2c(CCC(=O)N3CCN(c4ccccc4OC)CC3)nnc12 | -11 | -15%
Cc1ccccc1CSCc1ccc(C(=O)NCCc2ccccc2)o1 | 12 | 0.7%
CCCCCn1c(=O)[nH]c2cc(C(=O)N3CCN(c4cccc(OC)c4)CC3)ccc2c1=O | -5 | -1.3%
CCOC(=O)C1=C(CN2CCN(c3ccc(C)cc3C)CC2)NC(=O)NC1c1ccc(OC)cc1 (stereo not drawn) | 13 | -0.2%
CCN(CC)CCNC(=O)C(=O)NCC(c1ccc2c(c1)OCO2)N1CCOCC1 (stereo not drawn) | -9 | -1.5%
O=c1oc2ccc3ccccc3c2cc1-c1nnc(Nc2ccccc2F)s1 | 0 | -2.8%
O=C(NCCc1ccccc1)C(=O)NCC(c1ccc2c(c1)OCO2)N1CCOCC1 (stereo not drawn) | 6 | -0.6%
Cc1ccccc1CSc1nnc2[nH]c(=O)cc(C)n12 | -11 | -2.7%
CCCOc1ccc(OC(=O)c2ccc(-c3ccc(CCC)cn3)cc2)cc1 | -10 | 1.9%
COc1ccc(OCc2ccc(-c3nc(C#N)c(N4CCCCC4)o3)o2)cc1 | 35 | 28µM*
COc1ccc(NC(=O)C(NS(=O)(=O)c2cccc3nsnc23)C(C)C)cc1OC (stereo not drawn) | 19 | -2.7%
CN(CCc1ccccc1)c1cc2c(c3c1ccn3C)C1CCC2C1 (stereo not drawn) | -2 | ?
O=C(CSc1nc(-c2cccs2)nc2cc(=O)[nH]n12)Nc1ccccc1Cl | 15 | 0.4%
O=C(CSc1nc2c(c(=O)[nH]1)CCCC2)Nc1ccc(Br)cc1 | 16 | 0.7%
Cc1ccc(Cn2c(=O)n(Cc3ccco3)c(=O)c3sc4ccccc4c32)cc1 | -10 | ?
Cc1cc(NC(=O)Nc2nc3c(s2)CCCCCC3)ccc1Br | -11 | 1.8%
Cc1ccc(-n2c(=O)c3ccccc3n(CC(=O)Nc3cccc(C(F)(F)F)c3)c2=O)cc1 | 8 | -29%
COCC(C)NC(=O)C1=CC(c2ccc3c(c2)OCO3)=NS(=O)(=O)N1C (stereo not drawn) | 14 | -1.3%
CC(=O)Nc1ccc(NC(=O)c2nc(SCc3ccccc3C)ncc2Cl)cc1 | 1 | -1.3%
COc1ccc(CN(C(=O)COc2ccccc2OC)C2CCS(=O)(=O)C2)cc1 (stereo not drawn) | 7 | 1.3%
Cc1cccc(N(CC(N)=O)C2SC(=O)N(Cc3cccc(C(=O)O)c3)C2=O)c1 (stereo not drawn) | 13 | -1.4%
COc1cccc(-c2nnc(SCC(=O)N3CCC(C)CC3)o2)c1 | 0 | -1.8%
O=c1c2sc3ccccc3c2n(Cc2cccc(F)c2)c(=O)n1Cc1ccccc1 | -14 | ?
CCN(CC)c1ccc(NC(=O)C(Cc2ccccc2)NS(=O)(=O)c2ccc(Br)s2)c(C)c1 (stereo not drawn) | -5 | -1.8%
CCOC(=O)c1c(S(=O)(=O)N2CCC(C(=O)N3CCN(c4ccc(F)cc4)CC3)CC2)c(C)n(C)c1C | 11 | -1.2%
COc1cccc(-c2cc(C(F)(F)F)nc(NCCc3ccc(OC)c(OC)c3)n2)c1 | 19 | ?
COC(=O)c1ccc(CSc2nc3c([nH]c4ccccc43)c(=O)n2-c2ccc(Cl)cc2)o1 | 7 | 2.5%
COc1ccc(N(C)S(=O)(=O)c2ccc3c(c2)CCN3C(=O)CCC(=O)O)cc1 | 3 | 0.0%
Oc1ccccc1Nc1nc2ccccc2n2nnnc12 | -9 | 1.6%
Cc1ccc(NCc2cccn2-c2nnc(N3CCCCCC3)s2)cc1 | 25 | 0.9%

Some of the entries above in another layout.
molecule,TRPML1 inh,ClpP mod
COc1ccc(NC(=O)C(NS(=O)(=O)c2cccc3nsnc23)C(C)C)cc1OC (stereo not drawn),19,-2.7%
CN(CCc1ccccc1)c1cc2c(c3c1ccn3C)C1CCC2C1 (stereo not drawn),-2,?
Cc1ccc(NCc2cccn2-c2nnc(N3CCCCCC3)s2)cc1,25,0.9%
COc1ccc(N(C)S(=O)(=O)c2ccc3c(c2)CCN3C(=O)CCC(=O)O)cc1,3,0.0%
COC(=O)c1ccc(CSc2nc3c([nH]c4ccccc43)c(=O)n2-c2ccc(Cl)cc2)o1,7,2.5%

Remaining list, next part:
SMILES | TRPML1 inh | ClpP mod
COCCCNC(=O)C(=O)NCC(c1ccc2c(c1)OCO2)N1CCOCC1 (stereo not drawn) | -6 | -3.0%
CCOC(=O)c1cccc(-n2nnc3c(sc4nc(C)c(Br)c(C)c43)c2=O)c1 | 10 | 0.4%
Cc1cc(C)c(Cn2c3ccccc3c3cnn(CC(=O)NC4CCCCCC4)c(=O)c32)c(C)c1 | 18 | -3.3%
COC(=O)c1cc(NC(=O)CCc2c(C)nc3cc(-c4ccccc4)nn3c2C)cc(C(=O)OC)c1 | 18 | -4.6%
Cc1ccc(C)c(NS(=O)(=O)c2cc3c(cc2C)n(C)c(=O)c(=O)n3C)c1 | 6 | -11%
O=S(=O)(Nc1cccc(Cl)c1)c1ccc2[nH]c3c(c2c1)CCCCCC3 | -21 | -16%
CCOc1ccc(NC(=O)c2cc(=O)c3cc(CC)ccc3o2)cc1 | 7 | 1.3%
Cc1ccc(NC(=O)Cc2coc3ccc(C(C)C)cc23)c(C)c1 | -2 | 0.5%
CCc1ccc(NCc2cc3cc4c(cc3n(CC(=O)Nc3ccccc3Cl)c2=O)OCO4)cc1 | -20 | 4.2%
COc1ccccc1N1CCN(CCCNC(=O)c2cnn(-c3ccccc3)c2C2CCN(C(=O)OC(C)(C)C)CC2)CC1 | 5 | -1.3%
Cc1ccccc1Nc1c(-c2c(F)cccc2Cl)nc2ccc(Br)cn12 | -17 | -0.2%
Cc1ccc(CNC(=O)Cc2c(C(=O)O)c(C)cn2C)cc1 | -5 | -2.9%
COc1cccc(C(=O)N(Cc2ccc(N(C)C)cc2)Cc2ccco2)c1 | 13 | -0.6%
Cc1ccc2nc(-c3ccc(NC(=O)Cc4ccccc4)cc3)sc2c1 | 7 | 4.2%
Cc1ccc(Cc2nc3ccccc3nc2SCC(=O)NCc2ccc(F)cc2)cc1 | -22 | -1.8%
CN(Cc1ccco1)C(=O)[C@H](Cc1ccccc1)NC(=O)CC[C@H]1O[C@@H](n2ccc(=O)[nH]c2=O)[C@H](O)[C@@H]1O | -1 | -4.4%
COc1ccc(-c2cn3nc(N4CCC(C(=O)Nc5ccc(Cl)cc5C)CC4)sc3n2)cc1 | 29 | -2.7%
CCOc1ccccc1NC(=O)Cn1c(=O)n(Cc2nc(C)no2)c(=O)c2ccccc21 | 15 | 59%
COCCn1c(CCC(=O)Nc2cc(C)ccc2C)nc2cccnc21 | 1 | -0.2%
CC1=C(C(=O)N(C(C)C)C(C)C)CC(CC(=O)NC2CCCCC2)C(=O)N1Cc1ccc(C(C)(C)C)cc1 (stereo not drawn) | 70 | 0.8%
O=C(NCC(c1ccc2c(c1)OCO2)N1CCN(c2ccccc2)CC1)C(=O)Nc1cccc(F)c1 (stereo not drawn) | 21 | -0.8%
O=C(Cn1c(=O)nc(-c2ccccc2F)c2cc(Cl)ccc21)N1CCN(c2ccccc2F)CC1 | 17 | -27%
CCOc1ccc(-c2cc(OC(=O)c3ccc(OC)cc3)c3c(C)oc(C)c3c(=O)c2)cc1 | 7 | 0.1%
CCCCN(CCCC)C1=C(C(=O)c2ccccc2)N(CC)S(=O)(=O)c2ccccc21 | 9 | 1.5%
CCN(Cc1ccccc1)C(=O)C(CC(C)C)NS(=O)(=O)c1ccc2c(c1)CCN2C(C)=O (stereo not drawn) | -10 | -0.3%
CCS(=O)(=O)N1CCc2cc(C(=O)Nc3ccc(OC)cc3OC)ccc21 | -5 | -0.5%
CCN(CC)CCNC(=O)c1ccc2c(=O)n3nc(Nc4ccccc4)sc3nc2c1 | 25 | -6.0%
O=C(COc1ccc(Cl)cc1)NCC(c1ccco1)S(=O)(=O)c1ccc(Cl)cc1 (stereo not drawn) | 33 | 3.1%
Cc1ccc(C)c(NC(=O)c2ccc3c(c2)CCCN3S(C)(=O)=O)c1 | -16 | 0.8%
Cc1c(Cl)cccc1NC(=O)c1cc2nc(-c3ccc4c(c3)OCO4)cc(C(F)(F)F)n2n1 | -14 | -3.5%
O=C(CCn1ccc2cc(S(=O)(=O)N3CCCC3)ccc21)NCc1cccc(Br)c1 | -12 | -1.9%
COCCN(CCOC)Cc1cc(=O)oc2cc(C)cc(C)c12 | -1 | -4.9%
Cc1cc(C)cc(NC(=O)c2cn3c4c(ccc(Cl)c4c2=O)OC(C)C3)c1 (stereo not drawn) | -25 | -1.9%
O=C(C1CCN(S(=O)(=O)c2ccc(Br)s2)CC1)N1CCN(c2cccc(C(F)(F)F)c2)CC1 | -6 | -3.9%
O=C(Cn1nnc(-c2cccc(C(F)(F)F)c2)n1)NCc1ccc(F)cc1 | -3 | -0.3%
Cc1cc(S(=O)(=O)Nc2cccc(C(=O)O)c2)c(C)c(S(=O)(=O)c2ccccc2)c1 | -6 | 0.2%
O=C(Nc1ccc(C(=O)OCc2cc(=O)n3c4c(sc3n2)CCCC4)cc1)c1ccccc1 | -9 | -2.0%
O=c1c(S(=O)(=O)c2ccc(Cl)cc2)cn(Cc2ccc(F)cc2)c2ccc(F)cc12 | 24 | -5.5%
Cc1cccc(NC(=O)c2sc3nc4c(cc3c2N)CN(C(C)C)CC4)c1 | -5 | -21%
CCOC1=C2CN(S(=O)(=O)c3ccc(C)cc3)[C@H](c3ccccc3)C[C@@H]2N(S(=O)(=O)c2ccc(C)cc2)[C@H](c2cccc(C)c2)C1 | 18 | -4.2%

Filtered by structure, those above with a COOH group.
SMILES | TRPML1 inh | ClpP mod
Cc1cccc(N(CC(N)=O)C2SC(=O)N(Cc3cccc(C(=O)O)c3)C2=O)c1 (stereo not drawn) | 13 | -1.4%
COc1ccc(N(C)S(=O)(=O)c2ccc3c(c2)CCN3C(=O)CCC(=O)O)cc1 | 3 | 0.0%
Cc1ccc(CNC(=O)Cc2c(C(=O)O)c(C)cn2C)cc1 | -5 | -2.9%
Cc1cc(S(=O)(=O)Nc2cccc(C(=O)O)c2)c(C)c(S(=O)(=O)c2ccccc2)c1 | -6 | 0.2%

Further compounds.
SMILES | TRPML1 inh | ClpP mod
CC(=O)c1cccc(NC(=O)Cn2nc(C(F)(F)F)c3c2CCC3)c1 | -6 | -0.2%
COc1ccc(OC)c(NC(=O)c2cc(S(=O)(=O)NCCc3ccc(Cl)cc3)ccc2F)c1 | ? | -22%
CCN(CC)c1cc(C)c2cc(NC(=O)c3ccccc3Cl)ccc2n1 | 3 | -20%
Cc1ccc(S(=O)(=O)n2nc(C)c(S(=O)(=O)N3CCC(C)CC3)c2C)cc1 | -2 | 0.5%
O=C(CSc1nc(=O)n(CCN2CCOCC2)c2c1CCC2)Nc1ccccc1 | -13 | -4.1%
CC(=O)Nc1ccccc1-c1nc2ccccc2n(CC(=O)Nc2ccc(C)c(Cl)c2)c1=O | 7 | 1.1%
Brc1ccc(Nc2c3c(nc4nncn24)CCC3)cc1 | 19 | 1.7%
COc1ccc(N2CCN(C(=O)c3nc(SC)ncc3Cl)CC2)cc1 | 19 | -1.0%
CCc1nn2c(=O)cc(COC(=O)c3cccc(NC(=O)COc4ccccc4)c3)nc2s1 | 4 | -2.7%
CCOc1ccccc1CNC(=O)c1cc2n(n1)CCCN(Cc1ccc(C)cc1)C2=O | 19 | 0.7%
COc1cccc(N2CCN(S(=O)(=O)c3cc(-c4cc(C)no4)ccc3C)CC2)c1 | -3 | 3.2%
O=C(CN1C(=O)CCSc2ccccc21)Nc1ccccc1F | 6 | 0.0%
COc1ccc(-c2nc3ccccc3o2)cc1NC(=O)c1ccc(OCC(C)C)cc1 | -6 | ?
CCn1c(SCc2ccccc2Cl)nc(=O)c2c(C(=O)OC)cc(C3CC3)nc21 | 28 | -26%
Cc1ccc2cccc(NC(=O)COc3ccccc3Cl)c2n1 | 10 | ?
Cc1ccc(-c2cc(C(F)(F)F)n3nc(C(=O)Nc4ccc(Cl)c(C(F)(F)F)c4)cc3n2)cc1 | -12 | -2.0%

An excerpt; count on the stated rates, not on these rows.
